Vaccinia inh = blocks a specific stage of Vaccinia orthopoxvirus infection, primary screen, cell-based, single point; Vaccinia-infected cells, mCherry/Venus stage reporter fluorescence; stronger effect = lower value; some inactives read as strong as hits; activity change (mCherry), % (test concentration not listed); hit rate 0.01% among 89,000; AID 1053133, 2014;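 active = mCherry past -33% and 40 or more points under the early reporter, replicates agreeing; inconclusive = past -33% without that gap or agreement; tested in A549 cells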;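 note: scaled between vehicle wells and reference inhibitor wells; 23 nL library stock went into each well; one replicate is shown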
Vaccinia inh Venus = second read-out of Vaccinia inh, no call of its own (marks repeat the call); activity change (Venus), %; measured here: Venus reporter, other viral stage;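 negative = less Venus signal; first of two replicates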
Active calls of the source: *; ? = inconclusive; · = no result given.

Structure	Vaccinia inh	Vaccinia inh Venus
CO[C@@H](CN(C)Cc1ccc(-c2ccccn2)cc1)[C@@H](C)CN(C(=O)Nc1ccc(F)cc1)[C@@H](C)CO	-2.3	-6.6
C[C@H](CO)N1C[C@H](C)[C@H](CN(C)S(=O)(=O)c2cn(C)cn2)OCCCC[C@H](C)Oc2ccc(NS(=O)(=O)c3cccs3)cc2C1=O	25.4	7.6
Cc1noc(C)c1NC(=O)N(C)C[C@@H]1Oc2c(NC(=O)c3ccncc3)cccc2C(=O)N([C@H](C)CO)C[C@@H]1C	12.0	9.9
CCCN(C)C[C@H]1OCCCC[C@@H](C)Oc2ccc(NS(=O)(=O)c3ccc(F)cc3)cc2C(=O)N([C@H](C)CO)C[C@@H]1C	-0.4	-0.9
CN1CCN(C(=O)C[C@H]2CC[C@@H]3[C@H](COC[C@@H](O)CN3C(=O)Nc3ccc(F)cc3)O2)CC1	13.1	-5.3
O=C(NCC[C@@H]1CC[C@H](NS(=O)(=O)c2ccc(F)cc2)[C@@H](CO)O1)c1ccccc1F	-2.8	1.8
Cc1noc(C)c1S(=O)(=O)Nc1cccc2c1O[C@H](CN(C)Cc1ccncc1)[C@H](C)CN([C@@H](C)CO)C2=O	0.4	17.9
COc1cccc(S(=O)(=O)N[C@@H]2CC[C@@H](CC(=O)NCc3ccncc3)O[C@H]2CO)c1	-1.8	1.7
CC(=O)N1CCCCN2[C@H](C1)[C@@H](c1ccc(-c3cccc(C)c3)cc1)[C@@H]2CO	-28.1	-18.7
CCC(=O)N1[C@H](CO)[C@@H](c2ccccc2)C12CN(C(=O)c1cnccn1)C2	19.2	16.1
CC(C)NC(=O)Nc1ccc2c(c1)C(=O)N([C@@H](C)CO)C[C@@H](C)[C@@H](CN(C)Cc1ccc(Cl)c(Cl)c1)O2	-29.1	-31.5
Cc1ccccc1S(=O)(=O)N1CCCCN2[C@@H](CO)[C@H](c3ccc(-c4ccccc4)cc3)[C@@H]2C1	-31.2	-29.2
CC(C)COC(=O)N(C)C[C@@H]1OCc2ccccc2-c2c(n(C)c3ccccc23)C(=O)N([C@@H](C)CO)C[C@H]1C	-25.1	-17.5
C[C@H](CO)N1C[C@H](C)[C@@H](CN(C)Cc2ccccc2)OCc2cnnn2CCCC1=O	7.7	5.7
C[C@@H]1CCCCO[C@H](CN(C)Cc2ccccc2)[C@H](C)CN([C@@H](C)CO)C(=O)c2cc(NC(=O)NC3CCCCC3)ccc2O1	?	·
C[C@@H]1CN([C@@H](C)CO)C(=O)c2cc(-c3ccccc3)cnc2O[C@H]1CN(C)C(=O)C1CCOCC1	13.6	0.5
Cc1ccc(S(=O)(=O)NCC[C@H]2CC[C@@H](NS(=O)(=O)c3ccccc3Cl)[C@H](CO)O2)cc1	-3.1	-10.6
CN(C[C@H]1N[C@@H](CO)[C@@H]1c1ccc(C2=CCCC2)cc1)C(=O)c1ccc(F)cc1	1.6	11.9
C[C@@H]1CN([C@H](C)CO)C(=O)c2cc(C#C[C@@H](C)O)cnc2O[C@H]1CN(C)C(=O)c1ccncc1	8.7	3.3
C[C@@H]1CCCCO[C@@H](CN(C)Cc2ccc(C(F)(F)F)cc2)[C@H](C)CN([C@H](C)CO)C(=O)c2cc(NS(=O)(=O)c3cn(C)cn3)ccc2O1	-5.9	-16.4
COc1cccc(NC(=O)N[C@H]2CC[C@H](CC(=O)N3CCCCC3)O[C@H]2CO)c1	9.1	1.4
O=C(Nc1ccccc1)N1CCCCN2[C@@H](CO)[C@@H](c3ccc(-c4ccncc4)cc3)[C@@H]2C1	-12.9	-11.6
C[C@@H]1CN([C@H](C)CO)C(=O)c2cc(NS(C)(=O)=O)ccc2O[C@@H](C)CCCCO[C@H]1CN(C)Cc1ccc2c(c1)OCO2	12.1	7.8
CCC(=O)Nc1ccc2c(c1)OC[C@@H](C)N(Cc1ccccc1)C[C@@H](C)[C@@H](OC)CN(C)C2=O	-19.3	-16.7
O=C(Cc1ccncc1)NCC[C@H]1CC[C@H](NC(=O)Nc2ccc(F)cc2)[C@@H](CO)O1	3.0	4.3
C[C@@H]1CN([C@H](C)CO)C(=O)Cc2cc(NS(=O)(=O)c3ccc(F)cc3)ccc2O[C@H]1CN(C)Cc1ccc(C(=O)O)cc1	19.5	13.1
C[C@H]1CN([C@@H](C)CO)C(=O)c2cccc(NC(=O)NC3CCCCC3)c2O[C@H]1CN(C)S(=O)(=O)c1ccccc1	-24.9	-29.7
O=C(C[C@@H]1C[C@H]2c3cc(NC(=O)Nc4ccc(C(F)(F)F)cc4)ccc3O[C@H]2[C@@H](CO)O1)NC1CCCCC1	0.7	3.6
O=C(NC1Cc2ccccc2C1)[C@H]1[C@H](CO)[C@H]2Cn3c(cccc3=O)[C@H]2N1C(=O)C1CC1	11.4	1.0
C[C@H](CO)N1C[C@H](C)[C@H](CN(C)C(=O)C2CC2)Oc2cc(-c3ccncc3)ccc2S1(=O)=O	14.9	11.2
CNC(=O)C[C@H]1CC[C@H]2[C@@H](COC[C@@H](O)CN2S(=O)(=O)c2cccc(Cl)c2)O1	5.5	-3.6
O=C(C[C@H]1C=C[C@H](NC(=O)c2ccc3c(c2)OCO3)[C@H](CO)O1)NCc1ccc(Cl)cc1	0.8	2.5
COc1ccc2c3c([nH]c2c1)[C@H](CO)N(C(=O)C1CCCC1)CC31CCN(C)CC1	?	·
O=C(Nc1cccc(F)c1)N1C[C@@H]2[C@H](c3ccccc31)[C@H](CO)N2C(=O)Cc1ccccc1	6.6	-4.4
COc1ccc2c3c(n(C)c2c1)[C@H](CO)N(C(=O)Cc1ccccn1)CC31CCN(CC2CCCC2)CC1	-16.4	-6.7
C[C@@H]1CN([C@H](C)CO)C(=O)c2cc(C3=CCCCC3)cnc2O[C@H]1CN(C)Cc1cccc(F)c1	?	·
COc1ccc(NC(=O)N(C)C[C@H]2Oc3c(NC(=O)c4cc(C)nn4C)cccc3C(=O)N([C@@H](C)CO)C[C@@H]2C)cc1	22.8	11.9
COc1ccc(S(=O)(=O)N(C)C[C@H]2Oc3c(NC(=O)c4nc5ccccc5s4)cccc3C(=O)N([C@H](C)CO)C[C@H]2C)cc1	14.0	0.5
C[C@@H]1CN([C@H](C)CO)C(=O)c2cc(NC(=O)C3CCCCC3)ccc2O[C@@H](C)CCCCO[C@H]1CN(C)S(=O)(=O)c1cccs1	?	·
CC=Cc1ccc2n(c1=O)C[C@@H]1[C@@H](CO)[C@H](C(=O)NC3CCC3)N(C(=O)C3CC3)[C@H]21 (mixture of isomers)	20.7	14.2
O=C(NCc1ccncn1)[C@@H]1[C@@H](CO)[C@@H]2Cn3c(cccc3=O)[C@H]1N2CC1CC1	0.3	6.0
CC(C)C#Cc1ccc2c(c1)O[C@H](CN(C)C(=O)CC1CC1)[C@@H](C)CN([C@H](C)CO)S2(=O)=O	-30.4	-21.8
COc1cccc(NC(=O)N(C)C[C@@H]2Oc3cc(C#CC4(O)CCCC4)ccc3S(=O)(=O)N([C@@H](C)CO)C[C@H]2C)c1	6.9	-1.1
C[C@@H]1CN([C@H](C)CO)C(=O)c2cc(NC(=O)C3CCCCC3)ccc2O[C@@H]1CN(C)S(C)(=O)=O	5.9	1.9
O=C(Nc1ccc(F)cc1)N1CCCCN2[C@H](C1)[C@H](c1ccc(-c3cccc(F)c3)cc1)[C@@H]2CO	?	·
C[C@H]1CN([C@@H](C)CO)C(=O)c2cc(Br)cnc2O[C@H]1CN(C)Cc1ccc2c(c1)OCO2	17.0	10.6
Cc1noc(C)c1NC(=O)N(C)C[C@H]1Oc2ccc(NC(=O)CCCCCC(=O)Nc3ccccc3N)cc2C(=O)N([C@@H](C)CO)C[C@H]1C	5.0	6.2
C[C@@H]1CCCCO[C@@H](CN(C)Cc2ccncc2)[C@H](C)CN([C@H](C)CO)C(=O)c2cc(NC(=O)Nc3cccc4ccccc34)ccc2O1	5.2	2.3
COC(=O)C[C@@H]1CC[C@H]2[C@@H](COc3ccc(NC(=O)Nc4cccc(C#N)c4)cc3C(=O)N2C)O1	1.5	-4.1
CNC(=O)C[C@@H]1CC[C@@H]2[C@H](COc3ccc(NC(=O)Nc4ccc(F)cc4)cc3C(=O)N2C)O1	8.2	11.4

The list continues:
Structure	Vaccinia inh	Vaccinia inh Venus
C[C@H]1CN([C@@H](C)CO)C(=O)c2cc(C#CCC3CCCC3)cnc2O[C@@H]1CN(C)Cc1ccccn1	?	·
CO[C@H]1CN(C)C(=O)c2ccc(NS(C)(=O)=O)cc2OC[C@H](C)N(Cc2cncnc2)C[C@H]1C	4.7	5.4
COc1ccc(NC(=O)Nc2ccc3c(c2)C(=O)N([C@H](C)CO)C[C@@H](C)[C@H](CN(C)Cc2ccc(Oc4ccccc4)cc2)O3)cc1	25.9	19.9
C[C@H]1CCCCO[C@H](CN(C)C(=O)c2ccccc2)[C@@H](C)CN([C@@H](C)CO)C(=O)c2cc(NC(=O)Cc3ccccc3)ccc2O1	0.2	-4.7
C[C@H](CO)N1C[C@H](C)[C@H](CN(C)C(=O)Nc2ccccc2)Oc2ccc(NC(=O)CCC(F)(F)F)cc2CC1=O	5.7	6.5
O=C(NCc1ccccc1)C1=C[C@@H](c2coc3ccccc3c2=O)C[C@@H](OCc2ccc(CO)cc2)O1	-9.8	-2.1
O=C(NC[C@@H]1CC[C@@H]2[C@@H](CN2S(=O)(=O)c2ccccc2[N+](=O)[O-])O1)C1CCCCC1	0.2	-1.4
CNC[C@@H]1OCCCC[C@@H](C)Oc2ccc(NC(=O)Nc3cccc4ccccc34)cc2C(=O)N([C@H](C)CO)C[C@H]1C	18.5	22.7
Cc1ccc(S(=O)(=O)N(C)C[C@@H]2Oc3ccc(NC(=O)C4CC4)cc3CC(=O)N([C@@H](C)CO)C[C@@H]2C)cc1	-18.0	-13.4
C[C@@H]1CN([C@@H](C)CO)C(=O)c2cc(NC(=O)c3ccncc3)ccc2O[C@H]1CN(C)Cc1ccncc1	6.6	14.9
CCCNC(=O)C[C@H]1C[C@H]2c3cc(NC(=O)NC4CCCC4)ccc3O[C@H]2[C@H](CO)O1	0.5	7.3
COc1cccc(C(=O)Nc2ccc3c(c2)C(=O)N(C)C[C@@H](OC)[C@H](C)CN[C@H](C)CO3)c1	6.5	2.6
O=C(C[C@H]1CC[C@H](NC(=O)Nc2ccc(F)cc2)[C@H](CO)O1)NCCN1CCCC1	14.5	18.3
Cc1ccc(S(=O)(=O)Nc2ccc3c(c2)C(=O)N([C@H](C)CO)C[C@@H](C)[C@@H](CN(C)C(=O)Nc2ccccc2)OCCCC[C@@H](C)O3)cc1	-32.7	-28.2
CC(C)CC#Cc1ccc([C@H]2[C@H]3CN(S(=O)(=O)c4cccc(F)c4)CC(=O)N3[C@H]2CO)cc1	?	·
O=C(C[C@H]1CC[C@@H]2[C@H](COC[C@@H](O)CN2C(=O)c2ccncc2)O1)NC1Cc2ccccc2C1	6.3	14.1
C[C@@H]1CN([C@@H](C)CO)C(=O)c2cc(NS(C)(=O)=O)ccc2O[C@@H]1CN(C)C(=O)NC1CCCCC1	11.8	1.2
C[C@H](CO)N1C[C@H](C)[C@H](CN(C)CC2CCOCC2)Oc2ncc(C#CCc3ccccc3)cc2C1=O	-9.1	-7.1
Cc1noc(C)c1NC(=O)N(C)C[C@H]1Oc2c(NS(=O)(=O)c3cn(C)cn3)cccc2C(=O)N([C@@H](C)CO)C[C@H]1C	10.5	13.8
CN1C[C@H]2[C@@H](c3ccccc31)[C@H](CO)N2C(=O)c1ccccn1	12.8	9.6
CCC(=O)N1C[C@H](C)[C@@H](OC)CN(C)C(=O)c2cc(NC(=O)C3CCCCC3)ccc2OC[C@@H]1C	-9.3	-4.6
O=C(c1cccc(F)c1)N1CC(=O)N2[C@H](CO)[C@@H](c3ccc(C4=CCCC4)cc3)[C@H]2C1	-14.4	-14.0
C[C@H]1CN([C@@H](C)CO)C(=O)c2cc(N(C)C)ccc2O[C@@H]1CN(C)S(=O)(=O)c1ccccc1	13.2	0.8
CC(C)NC(=O)Nc1ccc2c(c1)C(=O)N([C@H](C)CO)C[C@H](C)[C@@H](CN(C)C(=O)CCC(F)(F)F)OCCCC[C@H](C)O2	22.5	10.7
COc1ccc(S(=O)(=O)N(C)C[C@H]2Oc3ccc(NC(=O)NC(C)C)cc3CC(=O)N([C@@H](C)CO)C[C@@H]2C)cc1	29.5	19.3

By substructure: the compounds so far containing a CF3 group.
Structure	Vaccinia inh	Vaccinia inh Venus
C[C@@H]1CCCCO[C@@H](CN(C)Cc2ccc(C(F)(F)F)cc2)[C@H](C)CN([C@H](C)CO)C(=O)c2cc(NS(=O)(=O)c3cn(C)cn3)ccc2O1	-5.9	-16.4
O=C(C[C@@H]1C[C@H]2c3cc(NC(=O)Nc4ccc(C(F)(F)F)cc4)ccc3O[C@H]2[C@@H](CO)O1)NC1CCCCC1	0.7	3.6
C[C@H](CO)N1C[C@H](C)[C@H](CN(C)C(=O)Nc2ccccc2)Oc2ccc(NC(=O)CCC(F)(F)F)cc2CC1=O	5.7	6.5
CC(C)NC(=O)Nc1ccc2c(c1)C(=O)N([C@H](C)CO)C[C@H](C)[C@@H](CN(C)C(=O)CCC(F)(F)F)OCCCC[C@H](C)O2	22.5	10.7

(next part)
Structure	Vaccinia inh	Vaccinia inh Venus
CCCC(=O)Nc1ccc2c(c1)OC[C@@H](C)N(Cc1ccccn1)C[C@H](C)[C@@H](OC)CN(C)C2=O	-9.6	-11.8
C[C@H]1CN([C@@H](C)CO)C(=O)c2ccccc2-c2ccccc2CO[C@@H]1CN(C)Cc1ccccc1C(F)(F)F	?	·
CC(C)NC(=O)N(C)C[C@H]1Oc2ncc(C3=CCCCC3)cc2C(=O)N([C@@H](C)CO)C[C@H]1C	11.8	4.5
C/C=C/c1ccc([C@H]2[C@@H](CO)N(C(=O)c3cnccn3)C23CN(C(=O)C2CC2)C3)cc1	8.3	5.8
CC(C)NC(=O)N[C@@H]1CC[C@@H](CCNC(=O)C2CCOCC2)O[C@H]1CO	14.6	22.4

Source: PubChem (Broad Institute)

This is a subset; rates above refer to the full screens.
